High-throughput results (PubChem)
2A StopGo: lowers the luciferase signal of an FMDV 2A StopGo reporter; human cells with a luciferase reporter of 2A StopGo recoding; control for the full effect not named in the record; Potency, µM (series often up to 57.9 µM), for the others: at the highest dose signal change, negative = less light; actives 1.2% (n = 410,000); AID 1159524; active = well fitted falling curve with a large enough effect; inconclusive = small, poorly fitted or top-dose-only effect; inactive = no such curve, though single readings can be large or run the other way; tested in HEK293T cells; note: % is set by controls: 0 for no effect and ±100 for the full control effect; nearly all actives have a fitted effect of over 45% in size; luciferase light after 4 h
Marburg entry inh: blocks Marburg virus binding to or entry into cells | Marburg virus pseudotyped entry inhibition, cell reporter; control for the full effect not named in the record; about a third of the inactives were read at about 46 µM | Potency, µM (series often up to 37.8 µM), for the others: at the highest dose activity change, negative = inhibition, hits mostly inhibitors | actives 1.8% (n = 300,000) | AID 540276; active = well fitted inhibition curve with a large enough effect; inconclusive = small, poorly fitted or top-dose-only effect, or effect the other way; inactive = flat fitted curve, though single readings scatter; tested in HEK293 cells; about a fifth of its hits are not listed in these tables; note: % is set by controls: 0 for no effect and ±100 for the full control effect; luciferase read-out
SARS PLP yeast: blocks SARS-CoV papain-like protease in a yeast assay. S. cerevisiae expressing SARS-CoV PLpro, growth rescue; control for the full effect not named in the record. Potency, µM (top dose mostly 32.9 µM), without a hit: at the highest dose activity, positive = growth rescue. actives 0.19% (n = 330,000); active means well fitted rising curve with a large enough effect; inconclusive means small, poorly fitted or top-dose-only effect; inactive means no such curve, though single readings can be large or run the other way; note: 0% is about no effect; nearly all actives have a fitted effect of over 55% in size; growth read by luminescence after 48 h
RE007 growth inh: less growth of the S. pombe RE007 Vpr strain | Potency, µM (series often up to 92.2 µM), without a hit: at the top dose activity change, negative = less growth | S. pombe RE007 Vpr strain, BacTiter-Glo ATP luminescence, 24 h; control for the full effect not named in the record | actives 0.21% (n = 360,000); active = well fitted falling curve with a large enough effect; inconclusive = small, poorly fitted or top-dose-only effect; inactive = no such curve, though single readings can be large or run the other way;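 note: % is set by controls: 0 for no effect and ±100 for the full control effect; nearly all actives have a fitted effect of over 50% in size; the assay follows cell death caused by Vpr and the record does not say whether a fall means rescue or toxicity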
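Fission yeast strain RE007, carrying one chromosomally integrated HIV-1 vpr copy, was seeded at OD 0.01 in PMG+AL medium with 23 nL pinned compound. After 24 h at 30 °C and 99% humidity, viability was read by BacTiter-Glo luminescence.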
NS1 inh: inhibitors of influenza NS1 protein function; S. cerevisiae slowed by influenza A NS1, growth recovery by OD600; Potency, µM (top dose mostly 46.1 µM), for inactives: at the highest dose activity, positive = more growth; actives 0.4% (n = 270,000); AID 2326; active means well fitted rising curve with a large enough effect; inconclusive means small, poorly fitted or top-dose-only effect; inactive means no such curve, though single readings can be large or run the other way; note: nearly all actives have a fitted effect of over 50% in size
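OD600 was taken as the measure of yeast growth restored by compound in an NS1-expressing S. cerevisiae strain. Cells had been washed out of glucose medium and diluted 1:100 into galactose -URA medium, pH 6.0.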
LASV entry inh: Lassa virus entry inhibition. actives 1.2% (n = 300,000). Potency, µM (titrated, usually from 37.9 µM), inactives show top-dose activity change, negative = inhibition, most hits filed as inhibitors. Lassa virus pseudotype entry inhibition, cell reporter; control for the full effect not named in the record; active means well fitted inhibition curve with a large enough effect; inconclusive means small, poorly fitted or top-dose-only effect, or effect the other way; inactive means flat fitted curve, though single readings scatter; tested in HEK293 cells; note: % is set by controls: 0 for no effect and ±100 for the full control effect; nearly all actives have a fitted effect of over 50% in size; luciferase read-out
Cruzain inh Det: cruzain (T. cruzi) inhibition with detergent. purified cruzain, Z-FR-AMC fluorescence, 0.01% Triton. P25779. actives 0.43% (n = 200,000). Potency, µM, for inactives: max response, negative = inhibition, most hits filed as inhibitors. AID 1478;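 note: plate controls were neutral wells for no effect and buffer without enzyme for full effect; nearly all actives have a fitted effect of over 40% in size; top concentration of the series not given in the record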
Target sequence (P25779 123-467 limits assumed): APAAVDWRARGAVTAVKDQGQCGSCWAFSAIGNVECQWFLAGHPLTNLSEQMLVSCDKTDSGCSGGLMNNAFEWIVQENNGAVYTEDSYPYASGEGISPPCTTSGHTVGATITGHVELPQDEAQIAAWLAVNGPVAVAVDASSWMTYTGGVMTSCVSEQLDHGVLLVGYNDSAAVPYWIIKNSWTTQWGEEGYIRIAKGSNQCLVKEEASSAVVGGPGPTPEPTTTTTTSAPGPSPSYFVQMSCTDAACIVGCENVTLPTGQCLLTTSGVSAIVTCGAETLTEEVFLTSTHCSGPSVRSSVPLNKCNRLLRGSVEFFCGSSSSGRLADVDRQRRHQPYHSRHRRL
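In this qHTS format, compounds are incubated with 1.5 nM cruzain for 15 min at room temperature before 2 uM Z-FR-AMC is added. Release of AMC is followed at 360/450 nm, and progress is taken as the 60 s fluorescence difference.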
Cruzain inh noDet: cruzain (T. cruzi) inhibition without detergent; purified cruzain, Z-FR-AMC fluorescence, no detergent; Potency, µM, without a hit: max response, negative = inhibition, usual class: inhibitors; actives 2.3% (n = 200,000); AID 1476;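 note: plate controls were enzyme without inhibitor for no effect and buffer without enzyme for full effect; nearly all actives have a fitted effect of over 40% in size; top concentration of the series not given in the record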
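Detergent-free condition (0.00005% Triton X-100) in acetate buffer pH 5.5 with DTT. 1.5 nM enzyme and compound were pre-mixed 15 min, then 2 uM Z-FR-AMC substrate added; reaction progress from fluorescence change between first and third reads (60 s).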
Active calls of the source: *; ? = inconclusive; · = no result given; & = joins results of further samples; [ ] = dose if it differs, or a comment. Unless noted, calls come from the whole dose curve; as a rule, active = well fitted curve in the direction sought with a large enough effect; inconclusive = small, poorly fitted or top-dose-only effect, or another doubt; inactive = no such curve, though single readings can be large; an effect the other way counts as inactive or inconclusive. Potency is the fitted concentration of half-maximal effect.

SMILES	2A StopGo	Marburg entry inh	SARS PLP yeast	RE007 growth inh	NS1 inh	LASV entry inh	Cruzain inh Det	Cruzain inh noDet
C=Cc1ccc(Cn2c(=O)n(-c3ccccc3C)c(=O)c3c4c(sc32)CN(C(C)=O)CC4)cc1	2%	-20%[46.1 µM]	·	·	·	·	-7.7%	?
CCn1c(SCC(=O)N/N=C/C=C/c2ccccc2[N+](=O)[O-])nnc1-c1ccccc1	?	3%	-10%	0%	3%	-9%	-4.2%	-2%
CN(C)S(=O)(=O)c1ccc(N2CCCC2)c(C(=O)Nc2ccccc2)c1	-19%	7%	0%	0%	·	5%	·	·
Cc1ccc(-n2ncc3c(NCCCn4ccnc4)ncnc32)cc1C	19%	·	·	·	·	?	1.0%	2%
Cc1onc(-c2ccccc2Cl)c1C(=O)NCc1ccc2c(c1)cc(C)n2C	-5%	·	-1%	-3%	14%	·	·	·
COc1ccc(NC(=O)N2CCN(c3nc4ccccc4n3C(C)C)CC2)cc1	9%	?	-1%	-11%	-1%	0%[46.1 µM]	·	·
CN1C(=S)SC(C)(C)C1(C)NO (stereo not given)	-12%	-4%	13%	-1%	-68%	1%	5.1%	0%
Cc1ccc(CNC(=O)CCC(=O)N2CCSc3ccccc32)cc1	-8%	·	·	·	·	4%[46.1 µM]	3.7%	3%
CCc1ccc(-n2cnc3cc(C(=O)NCC(OC)OC)ccc32)cc1	-15%	·	-1%	-5%	-6%	·	·	·
COC(=O)/C(C#N)=C/c1c(N2CCN(C)CC2)nc2ccccn2c1=O	0%	8%	2%	-14%	3%	16%	·	·
Cc1nn(C)cc1C(C(=O)NC1CCCCC1)N(C(=O)Cc1cccs1)c1ccc(Cl)cc1 (stereo not given)	?	-25%	6%	7%	-6%	16%	-0.7%	-3%
CC(C)CNC(=S)N1CCC(C(=O)c2ccc3c(c2)OCCO3)CC1	-13%	·	-1%	31%	-6%	·	·	·
CC(C)OC(=O)Cn1c(=O)oc2ccccc21	4%	17%	-10%	2%	0%	15%	3.7%	12%
CC(C)(c1ccc(O)c([N+](=O)[O-])c1)c1ccc(O)c([N+](=O)[O-])c1	-9%	?	·	-9%	·	?	·	·
Cn1c(=O)oc2cc(S(=O)(=O)Nc3cccc(F)c3)ccc21	21%	·	8%	3%	-1%	·	-0.7%	16%
CC(=O)c1cccc(NC(=O)c2cccc(S(=O)(=O)N(C)C)c2)c1	-20%	28%	2%	12%	5%	-26%	-0.8%	-4%
CC1CCN(C(=O)c2cc(-c3ccc4c(c3)OCO4)on2)CC1	0%	?	-2%	2%	-18%	?	·	·
CN(C)S(=O)(=O)N1CCC(n2nccc2NC(=O)CCCc2ccccc2)CC1	-24%	·	0%	-13%	-12%	·	·	·
CCOc1ccc(S(=O)(=O)N(CC(=O)N2CCC(C(N)=O)CC2)c2ccc(F)cc2)cc1	-4%	29%	2%	5%	10%	8%	·	·
N#CCCn1cc(C(=O)Nc2ccccc2Br)c(-c2cccs2)n1	-18%	?	-6%	7%	-17%	-4%	-3.8%	5%
Cc1ccc(S(=O)(=O)N2CCCCC2)cc1NC(=O)COC(=O)c1ccccc1F	0%	0%[46.1 µM]	-1%	0%	?	8%[46.1 µM]	·	·
CC(C)CCNS(=O)(=O)c1ccc(N2CCCCS2(=O)=O)cc1	22%	·	·	·	·	-11%[46.1 µM]	0.2%	-4%
CC(C)c1ccc(S(=O)(=O)c2nnn3c2nc(N2CCCCC2)c2sccc23)cc1	9%	·	·	·	·	-1%[46.1 µM]	-1.8%	-2%
CCN(CC)S(=O)(=O)c1ccc(O)c(NC(=O)CN2CCc3ccccc3C2)c1	-14%	1%[46.1 µM]	-2%	6%	3%	-30%	·	·
CC(=O)NCC(=O)OCC(=O)Nc1nc(-c2ccccc2)cs1	7%	-1%	1%	3%	·	?	·	·
O=C(Nc1ccccc1-c1nnc(SCc2ccc(Cl)cc2)o1)c1ccccc1	-3%	?	0%	0%	-2%	-4%	-2.5%	?
O=C(Nc1cccc(Cl)c1N1CCOCC1)c1cc([N+](=O)[O-])ccc1N1CCOCC1	?	·	3%	-18%	21%	·	·	·
CCC(=O)Nc1ccc(S(=O)(=O)NCc2ccc3c(c2)CCN3C(=O)c2ccc(C)cc2)cc1	?	·	·	·	·	?	-3.0%	6%
CC(C)c1ccc(S(=O)(=O)Nc2ccc(SC(F)F)cc2)cc1	45%[activator]	-21%	-100%	?	-24%	13%	-15%	-2%
OCc1ccccc1OCCCOc1cccc2cccnc12	19%	-6%	-13%	2%	-36%	-1%	·	·
Cc1ccc(N2CC(C(=O)Nc3nnc(SCCN4CCOCC4)s3)CC2=O)cc1C (stereo not given)	-7%	-4%	1%	-10%	-3%	7%	·	·
CC(CCC(=O)O)(c1ccc(O)cc1)c1ccc(O)cc1	-21%	·	-3%	13%	2%	·	0.4%&-7.7%	12%&3%
Cc1ccc(S(=O)(=O)N(C)C)cc1NC(=O)COC(=O)CC1CCCC1	-27%	18%	-6%	-7%	·	7%	·	·
N#CCSc1nnc(Cc2ccc3c(c2)OCO3)o1	8%	7%	1%	?	4%	-2%	2.6%	-10%
O=C(COc1ccccc1-c1ccccc1)c1ccccc1	11%	2%	-23%	4%	-27%	-9%	-2.9%	0%
NS(=O)(=O)c1ccc(CCNC(=O)Cn2c(=O)c3cccn3c3ccc(F)cc32)cc1	-6%	·	·	·	·	1%[46.1 µM]	-8.6%	11%
CCOC(=O)C1=C(C)N(C)C(=O)NC1c1cc2c(cc1[N+](=O)[O-])OCO2 (stereo not given)	12%	-18%[46.1 µM]	5%	3%	·	-5%[46.1 µM]	·	·
CC(=O)c1cccc(N(CC(=O)Nc2ccc(S(=O)(=O)N3CCCC3)cc2)S(C)(=O)=O)c1	-6%	9%	-2%	-9%	-20%	11%	·	·
Cc1ccc(Cn2nc(C)c(NC(=O)c3cc(-c4ccc(F)cc4)on3)c2C)cc1	?	-3%[46.1 µM]	·	·	·	-3%[46.1 µM]	-0.8%	-4%
CC(C)CC(=O)Nc1cc(-c2ccccc2F)nn1-c1ccccc1	9%	·	·	·	·	-17%[46.1 µM]	-0.9%	1%
CC(C)Nc1nc(-c2ccccn2)nc(-c2ccccc2)c1C#N	-15%	1%[46.1 µM]	3%	-4%	·	-5%[46.1 µM]	·	·
CCOC(=O)/C(C#N)=C1\C=CN(C)C(C)=N1	21%	18%	5%	-3%	6%	-13%	-13%	-14%
Cc1nc(SCC(=O)NCCc2ccccc2)nc(C)c1C	?	1%	7%	-2%	11%	-2%	0.3%	-5%
CCOC(=O)c1nc(C)n(-c2ccc([N+](=O)[O-])cc2)n1	30%[activator]	-4%[46.1 µM]	0%	-9%	·	?	·	·
COc1cccc(Nc2ncnc3onc(-c4ccccc4OC)c23)c1	-15%	·	-4%	2%	-13%	·	·	·
CCCCC(C(=O)NC1CCCC1)N(C(=O)c1snc(C(N)=O)c1N)c1ccc(C)cc1 (stereo not given)	-17%	?	1%	4%	10%	-3%[46.1 µM]	·	·
O=C(O)CN1CCNCCN(CC(=O)O)CCNCC1	5%	?	·	22%	·	1%	·	·
CCCn1cnc2cc(NCc3cccs3)ccc21	23%	16%	-1%	-21%	9%	-1%	·	·
COc1ccc(-c2oc3ncn4nc(COc5ccccc5)nc4c3c2-c2ccc(OC)cc2)cc1	42%[activator]	19%	3%	8%	13%	1%	-9.8%	4µM*
Cn1c(=O)[nH]c(=O)c2c1nc(Sc1ccccc1)n2CCc1ccccc1	-22%	·	1%	-6%	0%	·	1.1%	-1%
COc1cccc(CC(=O)NNC(=O)c2ccc3c(c2)OCO3)c1	-8%	·	-1%	6%	12%	·	·	·
O=C(Nc1cccc(-n2cnnn2)c1)c1ccoc1COc1ccc(Cl)cc1	-21%	·	-1%	4%	13%	·	·	·
Cc1ccc2occ(CC(=O)N(Cc3ccc(Cl)cc3)C3CCS(=O)(=O)C3)c2c1 (stereo not given)	-21%	?	·	·	·	-10%[46.1 µM]	-9.2%	?
CNCCOc1ccccc1-c1ccccc1	5%	-21%	3%	2%	2%	-5%	5.8%	-4%
Cc1ccccc1-c1nc(-c2ccc(NC(=O)c3ccc4c(c3)OCO4)cc2)no1	11%	?	-8%	13%[3.69 µM]	-3%	?	-1.4%	7.9µM*
COc1ccc(CCC(=O)NCc2ccccc2OC)cc1	0%	·	-2%	1%	-7%	·	·	·
O=C(O)Cn1cnc2scc(-c3cccs3)c2c1=O	7%	17%	-1%	6%	1%	3%	-0.5%	-4%
Cc1ccc(OCC(=O)N2CCN(C(=O)CCC3CCCC3)CC2)cc1	-19%	0%	3%	-1%	-16%	0%	2.3%	?
CC(=O)NS(=O)(=O)c1ccc(N=c2ssc3c2-c2cc(C)ccc2NC3(C)C)cc1	12%	?	5%	?	1%	-3%	-19%	?
COc1ccc(C(=O)Oc2c(OC)cc(C(=S)N3CCOCC3)cc2OC)cc1OC	1%	·	1%	1%	-3%	·	·	·
Other records.
SMILES	2A StopGo	Marburg entry inh	SARS PLP yeast	RE007 growth inh	NS1 inh	LASV entry inh	Cruzain inh Det	Cruzain inh noDet
CCN(CC)S(=O)(=O)c1ccc(C(=O)Nc2nnc(C(C)C)s2)cc1	13%	·	-2%	9%	8%	·	1.3%	9%
COc1ccc2nc(-n3c(C)ccc3C)sc2c1	·	10%	-6%	-2%	-7%	1%	2.7%	-19%
CC1CCCCN1C(=O)COC(=O)c1n[nH]c2ccccc12 (stereo not given)	17%	8%	2%	11%	-5%	?	3.4%	2%
COc1ccc(/C(O)=C2\C(=O)C(=O)N(c3cc(C)on3)C2c2cccc(OC)c2OC)cc1C (stereo not given)	-10%	-2%&-2%	-6%	7%	16%	17%	2.5%	5%
CCCNC(=O)c1onc(CSc2ccc(F)cc2)c1C(=O)NCCC	-12%	·	-7%	5%	0%	·	·	·
O=C(Nc1ccccc1F)C1CCN(C(=O)NC2CCCCC2)CC1	2%	0%[46.1 µM]	0%	8%	-7%	4%	·	·
CCOCCCNC(=O)c1c[nH]c2c(CC)cccc2c1=O	-7%	-8%[46.1 µM]	0%	-12%	-3%	-5%	·	·
